# Screening data from PubChem BioAssay.
# Rce1 inhib – yeast Ras-converting enzyme inhibition; yeast membranes, quenched prenylated peptide cleavage fluorescence; calls only; hit rate 0.27% among 290,000; AID 2563;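 active means fall in fluorescence gain of 50% or more versus controls, with final raw signal at or below 3038400; inconclusive means same 50% fall but final raw signal above 3038400; inactive means fall in fluorescence gain under 50%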;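 further: plate controls were neutral control wells for no effect and wells lacking membranes for full effect; tested at 10 µM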
# Target sequence (Q03530 whole entry, looked up): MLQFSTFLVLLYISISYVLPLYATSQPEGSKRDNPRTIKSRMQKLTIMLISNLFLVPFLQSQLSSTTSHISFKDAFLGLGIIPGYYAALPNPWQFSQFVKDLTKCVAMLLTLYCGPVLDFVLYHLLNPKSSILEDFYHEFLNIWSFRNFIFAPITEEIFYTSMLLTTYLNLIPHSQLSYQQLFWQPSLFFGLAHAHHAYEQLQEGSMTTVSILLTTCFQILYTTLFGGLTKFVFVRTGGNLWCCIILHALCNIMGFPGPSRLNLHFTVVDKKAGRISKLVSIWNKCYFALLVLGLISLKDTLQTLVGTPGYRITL
# MT1-MMP act inh – inhibitors of human MT1-MMP activation; hit rate 0.061% among 360,000; HT1080 RFP-PRO-GFP cells, GFP/RFP ratio fluorescence, overnight; percent of plate control window, DMSO zero; AID 651647; GFP/RFP ratio change, % at 20 µM; P50281;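 active means GFP/RFP ratio change of at least 30% with cell ATP level not reduced by more than half and red fluorescence within 50% of control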; further: strong numbers were not always called active
#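 Test system: HT1080 RFP-PRO-GFP cells; Benchmarks: DMSO and RFP-L50D-GFP cell wells; Timing: cells overnight before dosing, compound overnight, 37 °C, 5% CO2; Compound: one 20 µM compound dose with 1% DMSO; Read-out: GFP/RFP fluorescence ratio.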
# eIF4H inh – inhibitors of RNA binding by human eIF4H; eIF4H fluorescence polarization binding assay; inhibition, % at 35 µM; hit rate 0.94% among 290,000;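 active means 50% or more with normal probe brightness, or confirmed in later tests; inconclusive means above 50% with abnormal brightness, or retests that disagree; inactive means below 50% or failed in later tests; about a fifth of its hits are not listed in these tables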;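 further: calls also rest on retests at 20 µM and on dose response follow-up; 0% = protein and probe with vehicle and 100% = probe without protein; strong numbers were not always called active; many hits fall short of the cut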
# HIV Env fusion – HIV envelope-mediated fusion inhibition; HeLa-JRFL Env/CEM21 cell fusion, luciferase; inhibition, % at 12.3 µM; hit rate 1.1% among 360,000; AID 651610;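 active means mean replicate inhibition score of at least 50 and every replicate individually at or above 50; inconclusive means only one of the two criteria met; inactive means mean below 50 and not all replicates reaching 50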;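 further: 0% = plate neutral controls and 100% = maraviroc near 300 nM; one replicate is shown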
# UUG fidelity – alters start codon recognition fidelity in yeast | S. cerevisiae UUG-firefly luciferase reporter, luminescence/redox ratio | activity score, % at 18.7 µM | hit rate 0.13% among 350,000 | AID 602363;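 active means replicate mean at a twofold rise or more, about +100% in these data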;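 further: firefly luciferase made from a UUG start codon reports start codon fidelity; reporter light over untreated wells divided by growth signal over untreated wells; some hits fall short of that in this replicate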
# CSC inhib – blocks cancer stem cells | cancer stem cell-like cells viability, luminescence | inhibition, % at 7.5 µM | hit rate 1.1% among 300,000;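 active means mean at 75% or more and at least half the replicates too; inconclusive means mean and replicates disagree; tested in HMLE shEcad cells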;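 further: 0% = median of negative and 100% = median of positive control wells; the first replicate is given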
# PABP polyA inh – PABP-poly(A) binding inhibition | P11940 | PABP-poly(A) RNA binding, fluorescence polarization | inhibition, % at 35 µM | hit rate 1% among 290,000;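 active means 50% or more with normal probe brightness, or confirmed in later tests; inconclusive means above 50% with abnormal brightness, or retests that disagree; inactive means below 50% or failed in later tests; about a fifth of its hits are not listed in these tables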;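 further: calls also rest on retests at 20 µM and on dose response follow-up; controls were probe without protein and protein plus probe with vehicle; some compounds called inactive have numbers as strong as hits; many hits fall short of the cut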
# eIF4H inh retest – further read-out of eIF4H inh, marked with its call; inhibition, %; compound at 20 µM; confirmation average;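 mean of two retest wells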
# PABP polyA inh retest – further read-out of PABP polyA inh, marked with its call; inhibition, %; compound at 20 µM; confirmation repeats;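 mean of two retest wells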
# MT1-MMP act inh RFP – second read-out of MT1-MMP act inh, no call of its own (marks repeat the call); RFP signal change, %; measured here: RFP expression control read;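 0 = vehicle wells; hits needed this value within 50% of zero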
# An asterisk follows results filed as active; i = inactive; u = inconclusive; x = no result given. An excerpt. The share of hits here may be higher or lower than overall.
SMILES,Rce1 inhib,MT1-MMP act inh,MT1-MMP act inh RFP,eIF4H inh,HIV Env fusion,UUG fidelity,CSC inhib,PABP polyA inh,others
COC(c1ccccc1)c1nnc(CCC(=O)N(C)C(C2CC2)C2CC2)o1 (stereo unspecified),i,-4,4,-7,-7,-8,-14,-14,
COc1ccc(CP(=O)(c2ccccc2)c2ccccc2)cc1,i,-3,0,-1,-9,-13,6,1,
Cc1cccc(NC(=O)c2cc3cc([N+](=O)[O-])ccc3s2)n1,i,4,-7,-2,-48,x,7,6,
CCCCN1C(=O)C(O)(CC(=O)c2ccccn2)c2ccccc21 (stereo unspecified),i,0,1,-2,17,x,-9,-5,
N#Cc1c(CSCC(=O)O)cc(=O)n2c1[nH]c1ccccc12,i,1,4,25,10,x,2,24,
C=CCNc1nc(N)c(C(=O)Nc2cc(C)on2)s1,i,2,5,4,x,-12,-18,-8,
Cc1cc(N2CCOCC2)n2nc(C)c(-c3ccccc3Cl)c2n1,i,2,0,-5,11,3,-8,-7,
O=C(/C=C/c1ccc(S(=O)(=O)N2CCOCC2)cc1)NC(=S)Nc1ccc(N2CCOCC2)cc1,i,4,4,-2,-11,-16,1,-5,
CCCC(=O)N1CCc2cc(OC)c(OC)cc2C1c1cc2cc3c(cc2[nH]c1=O)OCO3 (stereo unspecified),i,6,2,x,-26,18,-7,x,
O=C1CSC(c2cccc([N+](=O)[O-])c2)N1CCN1CCCCC1 (stereo unspecified),i,2,4,-12,14,x,-9,3,
O=C(O)c1cccc(Sc2cc(Cl)ccc2C(=O)O)c1,x,-1,4,x,9,40,-10,x,
CCc1ccccc1N1CSC2=C(C#N)C(c3ccccc3F)CC(=O)N2C1 (stereo unspecified),i,-6,9,78*,-15,-24,-1,93*,
Cc1cc(NC(=O)COC(=O)C2CCC2)no1,i,0,3,3,-14,x,1,-6,
COc1ccc(OC)c(Nc2nc(N)c([N+](=O)[O-])c(N3CCOCC3)n2)c1,i,-4,-7,-1,0,-7,-4,-7,
Cc1ccc(S(=O)(=O)O)c(C)c1N1CCCC1=O,i,-1,3,-2,-79,-11,26,2,
O=C1OCC2=C1C(c1ccccc1)CC(=O)N2c1ccc(F)cc1 (stereo unspecified),i,2,4,5,6,x,-10,12,
COc1ccc(S(=O)(=O)N2CCC(c3nc4ccccc4[nH]3)CC2)cc1,i,-5,-4,8,-21,-16,56,7,
O=S(=O)(c1ccc(F)cc1)N1CCCc2ccccc21,i,x,x,-18,x,x,12,-1,
O=S(=O)(c1ccc(N2CCC(c3ccc(Cl)cc3)=N2)cc1)N(CCO)CCO,i,2,6,-1,19,-24,29,13,
OC[C@H]1O[C@@H](n2cnc3c(NC4CCCC4)ncnc32)[C@H](O)[C@@H]1O,i,7,3,-2,-6,-11,-12,0,
CCn1c(CSCc2ccc(C)cc2)n[nH]c1=S,i,-2,0,-9,-4,-21,-17,6,
CCOC(=O)[C@@H]1[C@H]2COc3cc(OC)ccc3[C@@H]2N2C(=O)N(c3ccc(Br)cc3)C(=O)[C@]12C,i,4,-6,x,-52,-14,-6,x,
Cc1cc(NCCN(C)C)n2nc(-c3cccs3)cc2n1,i,8,4,-8,x,-16,0,-2,
O=C(CSc1nc2ccc([N+](=O)[O-])cc2[nH]1)c1ccc(Cl)cc1,i,2,-1,1,-8,x,22,7,
Cc1ccc(NC(=O)c2cc3c(=O)oc4ccccc4c3s2)nc1,i,1,4,-10,x,x,-2,1,
N#C/C(=C\c1ccncc1)C(=O)Nc1ccc(C(=O)O)cc1,i,x,x,-12,-17,x,-8,8,
O=C(CSc1n[nH]c(-c2ccncc2)n1)Nc1ccc(Cl)c(Cl)c1,i,x,x,10,5,-20,13,37,
O=C(NCC1CCCO1)c1ccc(NC(=O)c2ccc([N+](=O)[O-])cc2)cc1 (stereo unspecified),i,8,-4,-5,3,-2,1,6,
Cc1cc(Oc2ccc(Cl)cc2)nc(-c2ccccn2)n1,i,1,-3,-3,4,-38,-9,2,
Cc1ccc(Cn2c(SCc3cccnc3)nc3c2c(=O)n(C)c(=O)n3C)cc1,i,-15,-1,-8,x,8,-6,-14,
O=C(Nc1nccs1)C1CC=CCC1C(=O)OCC(F)(F)C(F)F (stereo unspecified),x,3,4,x,x,22,7,x,
COc1cc(CNCCN2CCOCC2)ccc1OCc1c(Cl)cccc1Cl,i,x,x,8,x,x,44,21,
CC(C)CCNC(=O)[C@H](Cc1ccccc1)N1Cc2ccccc2C1=O,i,-2,-1,-3,6,0,-1,0,
O=C(Nc1ccc2c(c1)OCO2)c1ccc2c(c1)OCO2,i,2,0,-14,-35,x,11,-9,
COC(=O)c1oc2ccccc2c1NC(=O)c1ccccc1O,i,-6,-11,-2,14,-13,x,8,
Cc1ccccc1C1C(C#N)=C2N=C(N)c3c(sc4c3CCCCC4)N2C2=C1C(=O)CCC2 (stereo unspecified),i,-63,18,78*,x,x,22,54*,eIF4H inh retest=53*;PABP polyA inh retest=69*
O=C1C2C(C(=O)N1Cc1ccco1)C1C=CC2C12CC2 (stereo unspecified),i,1,1,-12,-95,-17,3,-13,
CC1CCCN(CC(O)COc2ccc(Cl)cc2)C1 (stereo unspecified),i,7,3,0,x,-11,37,-4,
O=C(NC1CCCC1)c1ccc(COc2ccccc2Br)o1,i,3,5,-7,2,-1,-8,4,
Cc1cccc(NCc2ccccc2O)c1C,i,-1,-4,-7,x,-8,8,8,

# Ordered by SMILES length (rising): part of the list above
SMILES,Rce1 inhib,MT1-MMP act inh,MT1-MMP act inh RFP,eIF4H inh,HIV Env fusion,UUG fidelity,CSC inhib,PABP polyA inh,others
Cc1cccc(NCc2ccccc2O)c1C,i,-1,-4,-7,x,-8,8,8,
CC1CCCN(CC(O)COc2ccc(Cl)cc2)C1 (stereo unspecified),i,7,3,0,x,-11,37,-4,
Cc1cc(NCCN(C)C)n2nc(-c3cccs3)cc2n1,i,8,4,-8,x,-16,0,-2,
Cc1cc(Oc2ccc(Cl)cc2)nc(-c2ccccn2)n1,i,1,-3,-3,4,-38,-9,2,
O=C(Nc1ccc2c(c1)OCO2)c1ccc2c(c1)OCO2,i,2,0,-14,-35,x,11,-9,
O=C1C2C(C(=O)N1Cc1ccco1)C1C=CC2C12CC2 (stereo unspecified),i,1,1,-12,-95,-17,3,-13,
COc1cc(CNCCN2CCOCC2)ccc1OCc1c(Cl)cccc1Cl,i,x,x,8,x,x,44,21,
O=C(Nc1nccs1)C1CC=CCC1C(=O)OCC(F)(F)C(F)F (stereo unspecified),x,3,4,x,x,22,7,x,
CC(C)CCNC(=O)[C@H](Cc1ccccc1)N1Cc2ccccc2C1=O,i,-2,-1,-3,6,0,-1,0,
O=C(CSc1n[nH]c(-c2ccncc2)n1)Nc1ccc(Cl)c(Cl)c1,i,x,x,10,5,-20,13,37,
Cc1ccc(Cn2c(SCc3cccnc3)nc3c2c(=O)n(C)c(=O)n3C)cc1,i,-15,-1,-8,x,8,-6,-14,
O=C(NCC1CCCO1)c1ccc(NC(=O)c2ccc([N+](=O)[O-])cc2)cc1 (stereo unspecified),i,8,-4,-5,3,-2,1,6,
Cc1ccccc1C1C(C#N)=C2N=C(N)c3c(sc4c3CCCCC4)N2C2=C1C(=O)CCC2 (stereo unspecified),i,-63,18,78*,x,x,22,54*,eIF4H inh retest=53*;PABP polyA inh retest=69*
CCOC(=O)[C@@H]1[C@H]2COc3cc(OC)ccc3[C@@H]2N2C(=O)N(c3ccc(Br)cc3)C(=O)[C@]12C,i,4,-6,x,-52,-14,-6,x,

# Returning to the listing, repeating the 2 entries before the break.
SMILES,Rce1 inhib,MT1-MMP act inh,MT1-MMP act inh RFP,eIF4H inh,HIV Env fusion,UUG fidelity,CSC inhib,PABP polyA inh,others
O=C(NC1CCCC1)c1ccc(COc2ccccc2Br)o1,i,3,5,-7,2,-1,-8,4,
Cc1cccc(NCc2ccccc2O)c1C,i,-1,-4,-7,x,-8,8,8,
CC(=O)Nc1ccc(/C=N/N2CCCCC2)cc1,i,1,0,8,-22,x,-6,8,
O=[N+]([O-])c1ccc(N/N=C/c2cn(-c3ccccc3)nc2-c2ccccc2)cc1,i,-12,-5,26,x,-17,29,14,
OCC1OC(n2cnc3ccccc32)CC1O (stereo unspecified),i,4,1,1,9,x,-9,5,
Cc1c(C(N)=O)sc2ncn(CC(=O)N(C)C3CCCCC3)c(=O)c12,x,3,2,2,-13,-8,-12,12,
O=C(CC(c1ccccc1)c1ccco1)N1CCCCC1 (stereo unspecified),i,-1,3,-6,x,x,-2,7,
COc1cc(Cl)c(C)cc1Nc1ncccn1,i,-2,-1,-1,-11,-19,0,5,
C/C(=N\O)c1ccc2[nH]ccc2c1,i,1,2,-10,x,-8,0,-3,
COc1ccc2cc(/C=N/NC(=O)c3ccc(CN(c4cccc(Cl)c4Cl)S(C)(=O)=O)cc3)c(Cl)nc2c1,i,-2,-5,12,9,-6,85*,-5,
Cc1noc(C)c1COC(=O)Cc1ccc(Cl)c(Cl)c1,i,7,3,12,x,0,-16,-4,
O=S(=O)(c1ccccc1)N(Cc1cccc(F)c1)c1ccccc1,i,1,2,-10,-12,-13,0,6,
COc1ccc(C(=O)N2CCCC(Nc3ccc(C(C)C)cc3)C2)c(OC)n1 (stereo unspecified),i,2,3,-8,34,-3,1,-10,
C=CCNS(=O)(=O)c1ccc(OC)c(C)c1,i,-4,3,-2,-72,-9,-4,7,
COc1ccc(C(=O)N/N=C(\Cc2ncc[nH]2)c2ccccc2)cc1,i,12,9,7,5,-26,41,-3,
CC(C)c1nc2cc(Cl)ccc2n(Cc2ccccc2)c1=O,i,1,2,-2,1,x,10,8,
CCc1nc2ccccc2n1CC(=O)Nc1cc(C)on1,i,1,2,2,-10,-13,-15,1,
Cc1ccc(CCNC(=O)c2ccc(NC3=NC4CS(=O)(=O)CC4S3)cc2)cc1 (stereo unspecified),i,2,-2,-7,-16,-13,-5,10,
N#CC(C#N)=C1C=CC=CN1/C(=C\c1ccccc1Cl)C(=O)c1ccccc1,x,-24,-3,u,-26,x,57,-2,
O=C(CNC(=O)c1cccc(F)c1)N/N=C/c1ccc([N+](=O)[O-])s1,i,-8,-6,28,28,x,1,-10,
O=C(Cn1c2[n+](c3ccccc31)CC(O)CS2)c1ccccc1 (stereo unspecified),i,-1,-3,0,2,x,-17,4,
N#C/C=C1\Sc2ccccc2C(=O)N1CC(=O)N1CCN(S(=O)(=O)c2ccccc2)CC1,i,-15,-6,-9,-6,-9,x,8,
Cc1ccc(S(=O)(=O)NCc2ccccc2)cc1,i,-1,0,-9,5,1,-2,3,
CC(C(=O)NC(N)=O)N1C(=O)NC(c2ccccc2)(c2ccccc2)C1=O (stereo unspecified),i,3,4,7,12,-11,x,1,
CCN(Cc1ccccc1)C(=O)c1cccc(S(=O)(=O)N2CCN(c3ccccc3)CC2)c1,i,0,-6,x,15,-2,8,x,
O=C(O)c1ccccc1N/N=C/c1c(Sc2nnnn2-c2ccccc2)nc2ccccn2c1=O,x,-15,4,49,2,x,13,24,
O=[N+]([O-])c1cccc(N/N=C/c2cccc(O)c2O)c1,i,8,-5,0,-13,x,37,-3,
O=C(COC(=O)c1c(Cl)cccc1Cl)Nc1cccc(S(=O)(=O)NC2=NCCCCC2)c1,x,2,-4,x,11,4,x,x,
Nc1c(C(=O)c2ccccc2)oc2ccc([N+](=O)[O-])cc12,i,13,4,-10,34,x,-2,7,
